fixLJ activator = B. multivorans fixK reporter activation; hit rate 0.3% among 29,000; B. multivorans fixK-promoter GFP reporter, 18 h; hits give high values; z-score (no concentration beside the values);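 active means replicate mean overnight rise in green fluorescent reporter signal, 3 or more SD over negative controls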;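 further: score is relative to vehicle wells of the plate; 300 nL library stock went into each well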
Numbers without * were called inactive.

Molecule | fixLJ activator
CN(C)[C@@H]1C(=O)C(C(N)=O)=C(O)[C@@]2(O)C(=O)C3=C(O)c4c(O)cccc4[C@@](C)(O)[C@H]3[C@H](O)[C@@H]12 | -3.4
CCOC(=O)c1c(NC(=O)CSc2cn(CCNC(=O)c3ccccc3OC)c3ccccc23)sc2c1CCCC2 | -0.25
CCOc1ccccc1NC(=O)C(CC(C)C)NC(=O)C1CCC(C)CC1 (stereo not drawn) | 1.2
CCCn1c(NCc2ccccc2C)nc2ccccc21 | -0.5
CCN(CC)c1ccc(NC(=O)c2cnn3c(C(F)F)cc(-c4ccccc4)nc23)cc1 | -0.92
N#Cc1c(N)nc2c(c1-c1ccc(O)cc1)CN(CCc1ccccc1)CC2 | -1.3
CCOc1ccc(NC(=O)Nc2c[nH]c(=O)[nH]c2=O)cc1 | -0.59
COc1ccc(N2Cc3cccc(C(=O)Nc4ccc(Cl)cc4)c3C2=O)cc1 | -1

Next compounds
Molecule | fixLJ activator
Cc1ccc(S(=O)(=O)N(Cc2nc(-c3ccc(Cl)cc3)no2)C2CCCCC2)cc1 | -0.69
COc1ccc(CNC(=O)c2ccc3c(c2)N(Cc2ccc(C)cc2)CCS3)cc1 | 1.1
COCCN1CC2(CCCN(c3ncc(OC)cn3)C2)CCC1=O (stereo not drawn) | -1.1
Cc1nn(C)c(C)c1CCC(=O)NCCc1nc(C2CC2)no1 | -1.2
CCN(C(=O)CC1C(=O)NCCN1Cc1cccc(OC)c1)C(C)C (stereo not drawn) | -1.6
CCc1ccc(NC(=O)Cn2c(=O)n(CCCC(=O)NCc3ccccc3OC)c(=O)c3ccccc32)cc1 | 0.32
CCOc1ccccc1NC(=O)CSc1nc2c(sc3ccccc32)c(=O)n1CCCC(=O)NC1CCCC1 | -0.58
COc1ccc(-c2[nH]c(-c3ccc(Cl)cc3)nc2SCC(=O)NCC2CCCO2)cc1 (stereo not drawn) | -1.2

Additional compounds.
Molecule | fixLJ activator
CCc1ccc(NC(=O)Cn2c(=O)n(-c3ccc(OC)cc3)c(=O)c3ccc(C(=O)NCc4ccc(C)cc4)cc32)cc1 | 0.39
COc1ccc(-n2c(=O)[nH]c3cc(C(=O)NCCc4ccccc4)ccc3c2=O)cc1OC | -0.81
Cc1ccccc1CN1CCNC(=O)C1CC(=O)NCc1nnc2ccccn12 (stereo not drawn) | -1.5
COc1cc(OC)c(N(C)C(=O)Cn2ncc3c(=O)oc4ccccc4c32)cc1Cl | -0.52
Cc1cccc(NC(=O)Cn2nnc(C(=O)NCc3ccco3)c2N)c1 | -0.05
COc1cccc(NC(=O)Cn2c(=O)n(Cc3ccccc3)c(=O)c3c4c(sc32)CN(C(C)=O)CC4)c1 | 0.24
COc1ccc(CCNC(=O)c2c(O)nc3ccccn3c2=O)cc1 | -0.56
Cc1cccc(NC(=O)CCS(=O)(=O)c2cc(Br)cc3c2N(C(=O)C2CC2)CC3)c1 | 0.29

Additional records
Molecule | fixLJ activator
Cc1cc(C(F)(F)F)n2ncc(C(=O)NCc3ccccc3-n3ccnc3)c2n1 | -0.52
COc1ccc(CNC(=O)CCc2nc3cccnc3n2Cc2ccccc2)cc1 | 1.1
COc1cc(CN(C(=O)c2ccc(OC(C)C)cc2)C2CCS(=O)(=O)C2)cc(OC)c1OC (stereo not drawn) | 0.31
Cc1coc2cc3oc(=O)c(CC(=O)NCc4cccc(Cl)c4)c(C)c3cc12 | -0.99
CCc1cc(S(=O)(=O)N2CCn3nc(CNC(C)=O)cc3C2)ccc1OC | -0.28
O=C(NC1(CO)CCCC1)c1ccc(CN2CCCCCC2)cc1 | -1.5
Cc1ccc(-n2c(-c3ccc(Br)cc3)nc3c(cnn3-c3ccccc3)c2=O)cc1 | -0.86
Cc1ccc(-c2cc3nc(-c4ccccc4)cc(C(F)(F)F)n3n2)cc1 | -0.97

Continued.
Molecule | fixLJ activator
CCC[C@]1(C(=O)O)CN(c2cc(C(=O)O)c3ccccc3n2)CCC1O (stereo partly drawn) | -2.8
COCCNc1oc(-c2ccc(OC)cc2)nc1C#N | -1.6
CCOC(=O)c1c(NC(=O)c2cc(=O)c3c(C)cc(C)cc3o2)sc2c1CCC2 | -2
CCn1cncc1CNC(=O)N1CCCCC1c1ccc(F)cc1 (stereo not drawn) | -0.05
COc1cccc(OC)c1C(=O)N1CCN(c2ccccc2)C(=O)C1 | -2.4
Cc1ccc2nc(CNC(=O)c3ccccc3)[nH]c2c1 | -2.4
COc1ccc(-c2[nH]c(-c3ccccc3)nc2SCC(=O)Nc2ccc3c(c2)OCCO3)cc1 | -1.5
CC(C)(C)NC[C@H](O)COc1nsnc1N1CCOCC1 | -0.64

The results go on:
Molecule | fixLJ activator
CCCN(CCC)C(=O)Cn1c(=O)n(-c2ccc(Cl)cc2)c(=O)c2c3c(sc21)CCCC3 | -1.2
Cc1nc2c3cccnc3nn2c(C)c1CCC(=O)NCc1ccccc1 | -1.3
CCCCOC(=O)CSc1nnc(-c2ccc(C)cc2)o1 | 1
O=C(Cn1ccnc1-c1ccccc1)NCc1nc(-c2ncccn2)no1 | -3.7
CCOC(=O)c1cccc(NS(=O)(=O)c2cc(Br)cc3c2N(C(=O)C2CC2)CC3)c1 | 1.6
COc1ccc(-n2cccn2)cc1S(=O)(=O)NCc1noc(C(C)C)n1 | -1
CC(C)COc1ccc(C(=O)N(Cc2ccc(N(C)C)cc2)Cc2ccco2)cc1 | 0.91
COCCNC(=O)CN1C(=O)COc2ccc(S(=O)(=O)N3CCOCC3)cc21 | -0.96

Later entries.
Molecule | fixLJ activator
CC(=O)c1ccc(NC(=O)CSc2nnc(N)s2)cc1 | -1.7
Cc1noc(C)c1CN1CCc2c(C(=O)NCC(F)(F)F)csc2C1 | 0.66
O=C(NC1CCCCC1)/C(=C/c1ccc(Cl)cc1)NC(=O)c1ccccc1 | 0.28
Cc1ccc(-c2nc3n(n2)C(c2ccccc2Cl)C=C(c2ccc(Cl)cc2)N3)cc1 (stereo not drawn) | -0.75
COc1ccc(C)cc1NC(=O)c1ccc2c(Cl)c3c(nc2c1)CCC3 | 0.56
CCN(CCc1nc2c(C)cccc2[nH]1)C(=O)c1ccncc1O | -0.85
COc1ccc(NC(=O)Cn2c(=O)n(-c3ccc(C)c(C)c3)c(=O)c3c(C)c(C)sc32)cc1 | 2.6
Cc1ccc(-c2nc(CNC(=O)C3CCOCC3)[nH]c2-c2ccccn2)cc1 | 1.5

(next part)
Molecule | fixLJ activator
Cc1ccc(CCNc2nc3ccccc3c3nc(-c4ccccc4)nn23)cc1 | 1.5
COc1cccc(-c2[nH]ncc2C(=O)N2CC3C4CCC(C4)C3C2)c1 (stereo not drawn) | -0.36
Cc1nc(SCC(=O)NCC(c2ccccn2)N2CCOCC2)n[nH]1 (stereo not drawn) | 0.41
CCC(=O)NCc1cc2n(n1)CCN(Cc1cc(C#N)n(C)c1C)C2 | -0.62
COC(=O)c1nnn(CC(=O)NC(=O)Nc2ccc(F)cc2)c1C(=O)OC | 1.2
CC(=O)N1CCc2c(sc3c2c(=O)n(-c2ccc(F)cc2)c(=O)n3Cc2ccc(C#N)cc2)C1 | -0.8
O=C(O)c1c(-c2ccccc2)oc2ccc(OCc3ccc(Cl)c(Cl)c3)cc12 | -3.4
CCS(=O)(=O)c1ncc(Cl)c(C(=O)NCc2ccccc2)n1 | -1.3

Rewritten as labelled records: entries from further up.
mol: COc1cccc(-c2[nH]ncc2C(=O)N2CC3C4CCC(C4)C3C2)c1 (stereo not drawn)
  fixLJ activator: -0.36
mol: Cc1nc(SCC(=O)NCC(c2ccccn2)N2CCOCC2)n[nH]1 (stereo not drawn)
  fixLJ activator: 0.41
mol: CCC(=O)NCc1cc2n(n1)CCN(Cc1cc(C#N)n(C)c1C)C2
  fixLJ activator: -0.62
mol: COC(=O)c1nnn(CC(=O)NC(=O)Nc2ccc(F)cc2)c1C(=O)OC
  fixLJ activator: 1.2

Copied from the list:
Entry for CCC(=O)NCc1cc2n(n1)CCN(Cc1cc(C#N)n(C)c1C)C2 in fixLJ activator: -0.62
Entry for Cc1nc(SCC(=O)NCC(c2ccccn2)N2CCOCC2)n[nH]1 (stereo not drawn) in fixLJ activator: 0.41
Entry for COc1cccc(-c2[nH]ncc2C(=O)N2CC3C4CCC(C4)C3C2)c1 (stereo not drawn) in fixLJ activator: -0.36

Other entries:
Molecule | fixLJ activator
COc1ccc(CN(C)c2cc(C)nc3ccnn23)c2cccnc12 | -2.1
NC(N)=N/N=C\c1c(Cl)cccc1Cl | 2.8
O=C(NC1COCC1Cc1ccnc2ccccc12)C1CCCC1 (stereo not drawn) | -0.72
Cc1oc2c(cc(NS(=O)(=O)c3ccc(Cl)cc3)c3ccccc32)c1C(=O)OCc1ccccc1 | -2.9
CCCOc1ccc(CNC(=O)Cn2ncn3c(cc4sc(CC)cc43)c2=O)cc1 | -2.3
COC(=O)c1ccc(NC(=O)c2cccc3c2C(=O)N(C2CCCCC2)C3)cc1 | -0.11
COc1ccc(OC)c(NC(=O)Cc2c(C(=O)O)[nH]c3ccc(Cl)cc23)c1 | -0.07
Cc1ccc(-c2noc(CCC(=O)N(C)c3ccccc3F)n2)cc1 | -0.02

Additional entries.
Molecule | fixLJ activator
COc1cc(/C=C/c2nc(C#N)c(N3CCCCCC3)o2)cc(OC)c1OC | 2.5
Nc1nc(CCC(=O)N2CCC3(CC2)OCCc2sc(C(=O)O)cc23)cs1 | 0.49
O=C(NCCc1nc2ccccc2n1Cc1c(F)cccc1Cl)c1ccco1 | -0.21
Cc1ccc(CCNC(=O)c2ccc3c(Cl)c4c(nc3c2)CCCC4)cc1 | -0.71
COc1nn(C)c(C)c1NC(=O)N(C)Cc1cc(C(C)(C)C)n[nH]1 | -0.81
CCN1CCN(c2cc(C)c3cc(NC(=O)c4cccc(Cl)c4)ccc3n2)CC1 | 0.35
Cc1oc(-c2cccc(Cl)c2)nc1CN1CCCC(C(=O)NCc2ccc(Cl)cc2)C1 (stereo not drawn) | -1.6
O=C(c1ccc2c(c1)N(Cc1ccc(Cl)cc1)C(=O)c1ccccc1S2(=O)=O)N1CCC(Cc2ccccc2)CC1 | -0.26

Additional entries follow:
Molecule | fixLJ activator
COc1ccc2cc(CCNS(=O)(=O)c3ccc(C)cc3)c(=O)[nH]c2c1 | -0.12
COc1cc(OC)cc(C(=O)Nc2ccc(-c3nc4ccccc4s3)cc2C)c1 | -2
CC1(C)O[C@@H]2CC3C4C[C@H](F)C5=CC(=O)CC[C@]5(C)C4[C@@H](O)C[C@]3(C)[C@]2(C(=O)CO)O1 (stereo partly drawn) | 0.32
COc1cc([C@@H]2c3cc4c(cc3[C@H](O)[C@H]3COC(=O)[C@H]23)OCO4)cc(OC)c1OC | 0.41
COc1ccc(-c2cc(C(=O)Oc3ccc(C)cc3)c3cc(C)ccc3n2)cc1 | -0.82
CC(C)(C)c1ccc(C(=O)NC2CCOCC2OCc2cscn2)cc1 (stereo not drawn) | -1.6
CCc1ccc(-c2nc3cc(NC(=O)c4ccc(C)c(C)c4)ccc3o2)cc1 | 0.08
Cc1ccccc1NC(=O)c1sc2nc(N3CCOCC3)c3c(c2c1N)CC(C)(C)OC3 | -2.7

(cont.)
Molecule | fixLJ activator
COc1ccc(NC(=O)C(NC(=O)/C=C\c2ccc3c(c2)OCO3)c2ccc(OC)cc2)cc1 (stereo not drawn) | 0.73
O=c1c2sc3ccccc3c2n(Cc2cccc(C(F)(F)F)c2)c(=O)n1Cc1ccccc1 | 0.33
COc1ccc(OCC(=O)Nc2ccc(-c3nc4cc(C)cc(C)c4o3)cc2)cc1 | -0.27
CCOc1ccccc1N(C)C(=O)c1cc2c(s1)-c1ccccc1OC2 | 1.1
COCc1nc2ccccc2n1Cc1cccc(C)c1 | -0.9
CCOC(=O)c1cnc2cc(C(F)(F)F)ccc2c1Nc1cc(C)ccc1OC | 0.67
O=C(CN(c1cccc(Br)c1)S(=O)(=O)c1ccccc1)N1CCc2ccccc2C1 | 1.5
CCOC(=O)c1cc(OC(=O)c2ccc(C)cc2)n(-c2ccccc2)n1 | -0.38

(continued)
Molecule | fixLJ activator
COc1ccc(-n2c(=O)c3ccccc3n(CC(=O)Nc3ccccc3OC)c2=O)cc1 | -1.7
Cc1ccc(O)c(-c2n[nH]c3c2C(c2ccccc2F)N(Cc2ccco2)C3=O)c1 (stereo not drawn) | 0.15
COc1ccc(NC(=O)c2c(C)oc3ccc(O)c(CN4CCCCCC4)c23)cc1 | -0.42
COc1ccc(NC(c2nnc(-c3ccccc3)o2)c2ccccc2F)cc1Cl (stereo not drawn) | 1
CCN(CC)C(=O)C1CCN(c2cc(C)nc3c(-c4ccc(OC)c(OC)c4)c(C)nn23)CC1 | 0.92
CCOc1ccccc1NC(=O)CN(C)S(=O)(=O)c1ccc2nc(C)sc2c1 | -1.8
CCCn1cc(S(=O)(=O)NC2COCC2Cc2ccnc3ccccc23)cn1 (stereo not drawn) | 0.57
CC(C)(C)c1ccc(C2=NC(C)(C)N(CC(=O)Nc3ccc(F)c(F)c3)C2=O)cc1 | -2.2

Next section.
Molecule | fixLJ activator
CCN(CC)C(=O)c1sc(NC(=O)c2nc3ncccn3n2)c(C(=O)OC)c1C | -0.66
CN(C)c1nc2c(c(=O)[nH]1)CCN(C(=O)CCCn1cccn1)C2 | 0.92
Cc1[nH]nc(C(=O)N2CCCN(C(=O)CCn3cnnc3)CC2)c1Cl | -2.4
COCCC(=O)N1CC2CCC(C1)C2NC(=O)CCCc1ccc(OC)cc1 (stereo not drawn) | -0.56
Cc1ccc2nc(-c3ccc(Cl)s3)c(Nc3ccc4c(c3)OCCO4)n2c1 | -0.77
CCN1C(=O)C2(c3ccccc31)c1c(oc3ccc(F)cc3c1=O)C(=O)N2CCCOC (stereo not drawn) | 0.01
CCCN(C(=O)c1ccc2c(=O)n3c(nc2c1)CCCCC3)c1cccc(Cl)c1 | -0.54

3 consecutive compounds out of the list so far, for reference:
Molecule | fixLJ activator
CN(C)[C@@H]1C(=O)C(C(N)=O)=C(O)[C@@]2(O)C(=O)C3=C(O)c4c(O)cccc4[C@@](C)(O)[C@H]3[C@H](O)[C@@H]12 | -3.4
CCOC(=O)c1c(NC(=O)CSc2cn(CCNC(=O)c3ccccc3OC)c3ccccc23)sc2c1CCCC2 | -0.25
CCOc1ccccc1NC(=O)C(CC(C)C)NC(=O)C1CCC(C)CC1 (stereo not drawn) | 1.2

Screening data deposited in PubChem by ICCB-Longwood Screening Facility, Harvard Medical School.

These rows are one share of the data; count on the stated rates, not on these rows.
